TRPML1 ag = human mucolipin-1 channel agonism. activation, % (test concentration not listed). TRPML1-expressing cells, Ca2+ dye fluorescence, FDSS; host cell line not named in the record; reference of the full effect not given here. 410,000 tested, 0.12% active. AID 624414. Q9GZU1; in the data active = activation above about 50%; inconclusive = about 30% to 50%; inactive = below about 30%; also: 0% is about no effect; the text of the record puts the active cut at 80%
Target sequence (Q9GZU1 whole entry, looked up): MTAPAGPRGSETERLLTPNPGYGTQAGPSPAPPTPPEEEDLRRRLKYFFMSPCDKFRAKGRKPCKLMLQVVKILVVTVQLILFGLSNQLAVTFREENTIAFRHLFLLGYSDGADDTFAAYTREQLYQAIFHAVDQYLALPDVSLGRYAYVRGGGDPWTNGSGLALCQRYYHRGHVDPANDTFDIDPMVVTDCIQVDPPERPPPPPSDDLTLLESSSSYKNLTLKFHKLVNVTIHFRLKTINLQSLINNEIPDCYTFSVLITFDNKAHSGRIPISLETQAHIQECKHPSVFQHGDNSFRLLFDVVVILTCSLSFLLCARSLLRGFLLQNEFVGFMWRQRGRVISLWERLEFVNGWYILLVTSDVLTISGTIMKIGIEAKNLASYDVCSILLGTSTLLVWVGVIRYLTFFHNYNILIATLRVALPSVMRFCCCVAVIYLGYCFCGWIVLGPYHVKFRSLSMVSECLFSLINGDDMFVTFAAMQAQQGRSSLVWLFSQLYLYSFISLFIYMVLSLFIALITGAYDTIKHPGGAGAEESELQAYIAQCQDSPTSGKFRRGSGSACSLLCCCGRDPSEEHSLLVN
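In this qHTS format, compounds were pin-transferred onto Ca8-dye-loaded TRPML1-DL cells induced with Tet overnight, and intracellular Ca2+ fluorescence was recorded kinetically for 110 s after a 10 s baseline. A subsequent 4uM final 54-4 (EC80) addition followed by a second 110 s read served as the antagonist phase.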
gsp antag = antagonists of gsp mutant (McCune-Albright syndrome); Potency, µM (doses to about 76.9 µM), without a hit: at the highest dose activity change, negative = inhibition, actives largely listed as inhibitors; gsp-mutant cells, cAMP HTRF, 30 min; control for the full effect not named in the record; AID 624288; 340,000 tested, 0.4% active; active = falling curve of any shape with a large fitted effect; inconclusive = falling curve, mostly with a smaller effect; inactive = flat or rising curve; cell line not stated here;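 also: intracellular cAMP measured with PDE inhibitor Ro 20-1724 present during compound exposure; potency is read from the fitted curve at half-maximal effect; % is scaled to controls: 0 for no effect and ±100 for the full control effect; nearly all actives have a fitted effect of over 65% in size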
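HTRF cAMP read-out (cAMP-d2 plus anti-cAMP antibody-K in lysis buffer, 30 min RT). Before lysis, cells are exposed to compounds with […] for 30 min at 37C in DPBS containing Ca/Mg, BSA and Tween 20.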
ClpP mod = qHTS Assay for Activators of ClpP; purified B. subtilis ClpP, FRET peptide cleavage, 20 min; 340,000 tested, 1.9% active; Potency, µM (highest dose often 57.5 µM), for the others: top-dose activity change, negative = active; ATP-dependent Clp protease proteolytic subunit (Bacillus subtilis (strain 168)), P80244; AID 651965, 2013; active = well fitted falling curve with a large enough effect; inconclusive = small, poorly fitted or top-dose-only effect; inactive = no such curve, though single readings can be large or run the other way; also: potency is read from the fitted curve at half-maximal effect; the source files actives as falling curves though it sought activators and does not explain the sign; nearly all actives have a fitted effect of over 65% in size; many hits overshoot -100%
Target sequence (P80244 whole entry, looked up): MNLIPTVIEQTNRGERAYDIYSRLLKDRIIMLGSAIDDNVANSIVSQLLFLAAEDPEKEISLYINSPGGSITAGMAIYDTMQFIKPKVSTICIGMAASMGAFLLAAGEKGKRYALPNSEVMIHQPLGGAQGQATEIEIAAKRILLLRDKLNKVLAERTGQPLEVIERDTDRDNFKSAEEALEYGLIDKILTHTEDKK
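FRET quenching reversal measured ClpP activation: 10 microg/mL B. subtilis ClpP at pH 8 with the FRET-FV decapeptide, read at 430 nm after 320 nm excitation. The 20-min minus 0-min signal was scaled between DMSO/no-enzyme wells and ADEP (5.8 microM final).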
TRPML1 blocker = inhibitors of human TRPML1 channel. 390,000 tested, 0.02% active. TRPML1-inducible cells, Ca2+ dye fluorescence, FDSS; stronger effect = lower value; inhibition of EC80 agonist-evoked calcium signal. activity change, negative = inhibition, % (concentration not given with the values); in the data active means activity change below about -50%; inconclusive means about -30% to -50%; inactive means above about -30%;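 also: stimulus is agonist 54-4 at its EC80 concentration; % is scaled to controls: 0 for no effect and ±100 for the full control effect; compound concentration not given in the record; the text of the record puts the active cut at -80%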
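Calcium fluorescence in TRPML1-DL cells induced overnight with Tet: a 110 s read after compound pin addition, then a 110 s antagonist read after challenge with 54-4 at 4 uM final (EC80).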
Menin-MLL FL inh = menin-MLL binding inhibition, fluorescein peptide | FP activity change, % at 61.4 µM | 290,000 tested, under 10 active | Fluorescence polarization, fluorescein-MLL peptide displacement from menin; inconclusive = falling polarisation curve, or a change in total fluorescence; inactive = total fluorescence flat and polarisation flat or rising; no compound was filed as active; the % refers to the polarisation; negative = inhibition;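 also: % of control where 0% means no effect; inhibitors lower the polarisation; unlabelled MLL peptide was the positive control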
gsp agonist = activates gsp, the McCune-Albright syndrome mutation; gsp mutant cells, cAMP HTRF, 30 min; control for the full effect not named in the record; Potency, µM (top dose mostly 76.9 µM), inactives show at the top dose activation (cAMP increase), hits mostly activators; 340,000 tested, 0.13% active; AID 624287; active = well fitted activation curve with a large enough effect; inconclusive = small, poorly fitted or top-dose-only effect, or another doubt; inactive = no such curve, though single readings can be large or run the other way; cell line not stated here;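 also: phosphodiesterase inhibitor Ro 20-1724 added with compounds to block cAMP breakdown; potency is read from the fitted curve at half-maximal effect; nearly all actives have a fitted effect of over 60% in size; about a fifth of the inactives were tested at one dose only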
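Cells stably selected in G418 were plated at 2000/well, grown 16-24 hr, then given compounds in DMSO with the PDE inhibitor […] (300 uM solution added) for 30 min at 37C; cAMP was read by HTRF.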
* = called active by the depositor; ? = inconclusive; / = not tested or not shown; [ ] = remark or other dose.

SMILES	TRPML1 ag	gsp antag	ClpP mod	TRPML1 blocker	Menin-MLL FL inh	gsp agonist
Cc1nc(C)c(/C(O)=C\c2nc3ccc([N+](=O)[O-])cc3oc2=O)o1	-0.5	-4.7%	0.6%	1.1	1.9	1.8%[15.4 µM]
CCOc1ccccc1NC(=O)CSc1nccn1-c1ccccc1	0.3	2.9%	-1.6%	28.1	5.1	-41.5%[inhibitor]
Cc1ccc(CNC(=O)c2ccc3c(=O)c(O)c(-c4ccc(C)cc4)[nH]c3c2)cc1	1.3	10.7%	-15.6%	11.9	12.8	?
CCn1c(/N=C/c2ccccc2O)nc2ccccc21	0.4	-11.7%	-1.6%	8.4	-1.0	-5.3%[15.4 µM]
NC(=O)C1CCCN(C(=O)c2ccc(Cl)cc2)C1 (configuration not stated)	0.9	0.0%	0.5%	-7.1	-0.6	?
Cn1c(-c2cccc([N+](=O)[O-])c2)cnc1NCc1cccc([N+](=O)[O-])c1	0.9	?	0.6%	13.4	-0.9	9.5%
CCOC(=O)c1ccc(NC(=O)CSc2nnc(CNC(=O)c3ccco3)o2)cc1	-0.6	-2.8%	-0.3%	-8.0	/	?
Cc1cc(Br)cc(C)c1NC(=O)c1cnc2ccccn2c1=O	-1.1	/	-0.1%	8.2	/	/
Cc1ccc(-n2nc3c(=O)n(CCCC(=O)N4CCC(C)CC4)nc(C)c3c2C)cc1	1.1	-19.4%	-5.9%	-14.9	0.8	?
O=C(Nc1ccccc1C(F)(F)F)c1cc(-c2ccc(O)cc2)on1	1.6	?	-1.3%	-6.7	-10.5	?
COc1cccc(-c2c(C#N)c(N)nc3c2c(C)nn3-c2ccccc2)c1O	2.1	-16.6%	-25.9%	7.3	5.2	-30.0%[inhibitor]
COCCCNC(=O)C1CCCN(S(C)(=O)=O)C1 (configuration not stated)	0.9	4.2%	-1.3%	3.9	-0.6	-3.4%[15.4 µM]
Nn1c(Cc2cccc3ccccc23)nnc1SC1CCOC1=O (configuration not stated)	-0.5	7.4%	-1.5%	4.9	-1.0	-10.0%
CN1CCN(C(=O)CCn2c(=S)[nH]c3ccccc3c2=O)CC1	0.7	/	0.2%	-5.4	/	?
Cc1cccc(CC(=O)NCCN2CCCCC2)c1	0.2	9.4%	-0.6%	-14.7	1.0	-5.0%[15.4 µM]
CCCC(=O)Nc1sc(C)c(-c2ccc(C(C)CC)cc2)c1C#N (configuration not stated)	0.5	-0.3%	-2.9%	-14.9	0.3	28.9%
COC(=O)[C@@]1(Cc2ccc(F)cc2)[C@H]2c3cc(C(=O)N(C)C)n(Cc4ccsc4Br)c3C[C@H]2CN1C(=O)c1ccccc1	0.7	/	0.6%	/	5.4	/
COc1ccc(CNC(=O)CSc2ncc3c(n2)-c2cc(Cl)ccc2N(Cc2ccccc2)S3(=O)=O)cc1	-1.2	/	-11.5%	7.9	/	/
COc1ccc(-n2c(=O)c3c4c(sc3n3c(=S)[nH]nc23)CCCC4)cc1	-0.2	?	/	30.1	3.0	-14.8%[15.4 µM]
Cc1ccc(S(=O)(=O)Nc2ccccc2F)cc1C(=O)NNC(=O)c1ccccc1O	0.8	-3.3%	/	25.1	/	-15.7%[15.4 µM]
O=C1CC(c2ccc3ccccc3c2)NN1 (configuration not stated)	0.9	-7.7%	-3.9%	-26.3	/	/
CCOc1cc(C(=O)N2CCC(CC3CC(c4ccccc4)=NO3)(C(=O)NCc3ccc(OC)cc3)CC2)cc(OCC)c1OCC (configuration not stated)	-0.3	-16.3%	-2.8%	-5.7	/	/
COc1cccc(-c2sc3ccc(OC)cc3c2-c2ccc(OCCN3CCCCC3)cc2)c1	0.7	2.4%	-23.3%	18.8	/	/
O=C(Nc1cccc(C(F)(F)F)c1)c1cccc(C(=O)Nc2cccc(C(F)(F)F)c2)c1	0.2	/	67.3%	-19.2	/	/
O=C1C2C(c3ccccc3)CC=CC2C(c2cccc([N+](=O)[O-])c2)N1Cc1ccccc1 (configuration not stated)	0.9	/	/	26.2	1.3	/
O=C1CN(S(=O)(=O)c2cccc(Cl)c2Cl)c2ccccc2N1	0.7	-0.5%	/	8.7	8.4	13.6%
Cc1cccc(C)c1NC(=O)Cn1c(SCC(=O)NCc2ccccc2)nc2ccccc21	-0.8	/	0.1%	0.1	/	/
CCOC(=O)c1cccc(Nc2nc(C)cc(C)n2)c1	2.5	1.9%	?	24.9	0.3	-9.2%
Cc1ccc(SC(CC(=O)c2ccc(C(C)(C)C)cc2)C(=O)O)cc1 (configuration not stated)	-0.1	-23.9%	/	17.8	1.2	-3.0%
CCOC(=O)C1=C(c2ccccc2)N=c2s/c(=C\c3cc(OC)c(OC)c(OC)c3)c(=O)n2C1c1cccs1 (configuration not stated)	-0.4	-12.8%	-2.1%	-14.2	?	21.2%
Cc1c(C(=O)NC(C)c2ccc(-n3ccnc3)cc2)cccc1[N+](=O)[O-] (configuration not stated)	0.1	4.4%	0.6%	4.8	/	-10.5%
Cc1cc2ccccn2c1C(=O)c1ccc(Cl)cc1	4.3	-6.2%	0.5%	36.2	-1.4	17.8%
Cc1cccc2c3nc4ccccc4nc3n(C)c12	1.1	-6.0%	-1.5%	6.4	?	4.0%[15.4 µM]
CC1CCCN(C(=O)CN2C(=O)c3ccccc3S2(=O)=O)C1 (configuration not stated)	0.5	8.6%	0.7%	11.7	/	-72.6%[inhibitor]
Cc1cc2nc(/C(C#N)=C\c3ccc(-c4ccccc4C(=O)O)o3)[nH]c2cc1C	15.8	4.4%	/	6.4	?	19.6%
O=C(Nc1ccc(-c2csc(Nc3ccc(Cl)cc3)n2)cc1)c1cccc(C(F)(F)F)c1	-1.0	-13.7%	-26.7%	1.4	?	5.0%
CCSc1nc2cc(S(=O)(=O)N3CCOCC3)ccc2o1	-0.5	3.5%	2.2%	-5.5	/	-16.7%
Clc1ccc(OCCSCc2nc3ccccc3[nH]2)cc1	-0.2	-7.2%	-2.6%	4.4	?	11.4%
CCOc1ccc(NC(=O)CSc2ccc3nnc(-c4cccnc4)n3n2)cc1	-0.4	14.9%	-1.4%	-0.4	2.1	?
O=C(NCc1ccccn1)c1cnc2sccn2c1=O	-0.8	20.1%	28.2µM*	7.0	2.6	-40.7%[inhibitor]
CC(Oc1ccccc1)C(=O)Nc1ccc(C(=O)OCc2cc(=O)n3nc(C4CC4)sc3n2)cc1 (configuration not stated)	0.6	/	-28.5%	-1.0	/	/
Cc1cc(OCC(=O)NCCCN(C)C)cc(C)c1Br	-0.1	12.6%	-12.6%	0.4	-2.8	24.4%
Cc1cc(Cl)c2oc(C(=O)N(C)C(C)c3ccccn3)c(C)c2c1 (configuration not stated)	-0.6	-7.8%	-1.2%	6.7	/	2.8%[15.4 µM]
COc1ccc(C(=O)N(C)C2CCCCC2)cc1OC1CCN(C(C)C)CC1	-0.2	0.9%	1.8%	-5.5	/	-16.2%
OC(COc1ccc(Br)cc1)Cn1ccnc1 (configuration not stated)	1.3	7.7%	/	-5.5	13.6	-0.3%
NC(=O)CSC1=Nc2ccccc2C2=NC(c3ccccc3)C(=O)N12 (configuration not stated)	0.3	-10.7%	/	15.0	-2.3	19.7%[15.4 µM]
Cc1ccc(CSc2ccc(C(=O)N3CCOCC3)cc2[N+](=O)[O-])cc1	0.0	4.5%	/	7.9	1.4	-6.1%[15.4 µM]
Cc1ccc(C2C=C(c3ccc4c(c3)OCO4)Nc3ncnn32)cc1 (configuration not stated)	3.6	-17.2%	-8.6%	13.4	?	2.6%
O=C(N/C(=C/C=C\c1ccccc1)C(=O)N1CCOCC1)c1ccc(Br)cc1	-0.9	-10.9%	0.3%	-4.2	-0.2	-33.1%[inhibitor]
COc1ccc(-c2ccc(SCC(=O)Nc3nnc(C)s3)nn2)cc1	2.0	-2.8%	-2.5%	26.8	0.3	?

(more compounds)
SMILES	TRPML1 ag	gsp antag	ClpP mod	TRPML1 blocker	Menin-MLL FL inh	gsp agonist
CCC(=O)Nc1nnc(S(=O)(=O)N(CC(C)C)c2ccccc2)s1	-0.2	6.8%	-1.9%	5.5	-1.7	4.6%[15.4 µM]
CCOC(=O)c1c(C)[nH]c(C(=O)COC(=O)CCSc2ccccc2)c1C	5.3	-4.4%	-1.1%	-6.3	3.7	-30.2%[inhibitor]
CCOC(=O)N1CCN(C(=O)COc2ccc(Cl)c(C)c2)CC1	2.4	-6.6%	/	9.9	-3.9	10.0%
COc1ccc(/C(C)=N/NC(=O)CNC(=O)c2ccncc2)cc1	-0.8	14.2%	-0.8%	-15.8	3.4	-6.6%[15.4 µM]
CC1(C)Cc2nc3sc4c(SCC(=O)O)ncnc4c3cc2CO1	-0.6	-13.9%	-8.6%	-3.2	8.1	21.9%
CCOc1ccc(CNS(=O)(=O)c2cc(CN3C(=O)c4cccnc4C3=O)ccc2OC)cc1	-0.4	10.1%	-0.5%	70.6	/	?
CCCc1nn2c(=O)cc(CSCC(=O)Nc3cccc(OC)c3)nc2s1	-0.2	4.9%	-3.5%	-8.0	-1.4	-0.4%
CC(=O)Nc1ccc(NCC(O)COc2ccccc2)cc1 (configuration not stated)	0.5	2.1%	-2.3%	7.0	1.3	-10.0%
CC(=O)NC1C2CN3CCN(C2)CC1(Cc1ccccc1)C3 (configuration not stated)	-0.1	-16.3%	-1.4%	0.2	4.4	-4.5%
COc1ccc(C(=O)Nc2cccc(NC(C)=O)c2)cc1	-0.3	/	-1.0%	-8.8	/	/
O=C(CCCOc1ccccc1)N1CCN(S(=O)(=O)c2ccccc2)CC1	1.7	11.0%	0.4%	-10.0	/	9.9%[15.4 µM]
CC(C)c1ccc(CN2CCN(C(=O)CCl)CC2)cc1	0.3	2.6%	-2.2%	-2.6	-3.5	-2.0%
COc1ccc(CNCc2ccncc2)c(OC)c1	0.6	12.7%	/	-8.6	0.1	-19.0%
CC1CCCN(S(=O)(=O)c2ccc3c(c2)CCN3C(=O)C2CCC2)C1 (configuration not stated)	-0.5	-10.7%	-0.4%	-2.3	1.4	-1.3%
NNC(=S)NCCc1ccccc1	-0.5	0.6%	-1.0%	29.0	-4.4	-13.2%[15.4 µM]
O=C(CCl)Nc1cc(S(=O)(=O)N2CCOCC2)ccc1N1CCOCC1	1.7	9.7%	/	-2.7	-6.8	1.8%[15.4 µM]
CCNC(=S)N1CCN(S(=O)(=O)c2ccc(C)cc2)CC1	-0.6	1.5%	/	4.1	0.2	-3.0%[15.4 µM]
Cc1ccc(S(=O)(=O)N2CCCCC2)cc1NC(=O)c1cc2ccccc2o1	1.6	-14.0%	-10.7%	30.5	/	3.6%
CS(=O)(=O)N(CC(=O)N1CCN(c2ccccc2)CC1)c1cccc(Br)c1	-0.3	-7.4%	0.7%	-9.5	2.2	0.6%
CC(C)OC(=O)c1ccc(NC(=O)c2ccco2)cc1	-0.3	-2.3%	-0.3%	41.7	1.8	-23.3%

Bioassay records: PubChem BioAssay, National Center for Advancing Translational Sciences (NCATS)
